Bioassay records: PubChem BioAssay, National Center for Advancing Translational Sciences (NCATS)
Marburg entry inh: qHTS for inhibitors of binding or entry into cells for Marburg Virus. Marburg virus pseudotyped entry inhibition, cell reporter; control for the full effect not named in the record; about a third of the inactives were read at about 46 µM. Potency, µM (doses to about 37.8 µM), for the others: at the top dose activity change, negative = inhibition, actives largely listed as inhibitors. 1.8% of 300,000 active. AID 540276, 2011; active = well fitted inhibition curve with a large enough effect; inconclusive = small, poorly fitted or top-dose-only effect, or effect the other way; inactive = flat fitted curve, though single readings scatter; tested in HEK293 cells; about a fifth of its hits are not listed in these tables; note: % is set by controls: 0 for no effect and ±100 for the full control effect; luciferase read-out
RE007 growth inh: qHTS Assay for Inhibitors of the HIV-1 protein Vpr; 0.21% of 360,000 active; Potency, µM (titrated, usually from 92.2 µM), inactives show at the top dose activity change, negative = less growth; AID 651644, 2012; S. pombe RE007 Vpr strain, BacTiter-Glo ATP luminescence, 24 h; control for the full effect not named in the record; active = well fitted falling curve with a large enough effect; inconclusive = small, poorly fitted or top-dose-only effect; inactive = no such curve, though single readings can be large or run the other way;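 note: % is set by controls: 0 for no effect and ±100 for the full control effect; nearly all actives have a fitted effect of over 50% in size; the assay follows cell death caused by Vpr and the record does not say whether a fall means rescue or toxicity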
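Fission yeast RE007 carrying one integrated HIV-1 vpr copy, seeded at OD 0.01 in PMG+AL medium with 23 nL pinned compound. Grown 24 h at 30 degrees; viability read by BacTiter-Glo luminescence after 5 min.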
Cruzain inh Det: qHTS Assay for Promiscuous and Specific Inhibitors of Cruzain (with detergent). 0.43% of 200,000 active. purified cruzain, Z-FR-AMC fluorescence, 0.01% Triton. Cruzipain (Trypanosoma cruzi), P25779. Potency, µM, for inactives: max response, negative = inhibition, actives largely listed as inhibitors;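 note: plate controls were neutral wells for no effect and buffer without enzyme for full effect; nearly all actives have a fitted effect of over 40% in size; top concentration of the series not given in the record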
Target sequence (P25779 123-467 limits assumed): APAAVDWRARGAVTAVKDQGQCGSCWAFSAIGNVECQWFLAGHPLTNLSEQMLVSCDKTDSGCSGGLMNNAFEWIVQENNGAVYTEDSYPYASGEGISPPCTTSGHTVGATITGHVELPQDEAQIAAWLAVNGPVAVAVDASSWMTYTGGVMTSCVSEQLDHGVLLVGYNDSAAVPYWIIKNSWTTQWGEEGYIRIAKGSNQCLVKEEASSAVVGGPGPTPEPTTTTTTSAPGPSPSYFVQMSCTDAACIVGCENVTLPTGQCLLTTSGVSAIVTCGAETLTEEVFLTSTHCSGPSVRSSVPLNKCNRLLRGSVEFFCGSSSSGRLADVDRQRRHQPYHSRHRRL
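In this qHTS format, compounds are incubated with 1.5 nM cruzain for 15 min at room temperature before 2 uM Z-FR-AMC is added. Release of AMC is followed at 360/450 nm, and progress is taken as the 60 s fluorescence difference.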
2A StopGo: High Throughput Screening for Foot and Mouth Disease Virus Antivirals; Potency, µM (series often up to 57.9 µM), for inactives: top-dose signal change, negative = less light; AID 1159524, 2015; human cells with a luciferase reporter of 2A StopGo recoding; control for the full effect not named in the record; 1.2% of 410,000 active; active = well fitted falling curve with a large enough effect; inconclusive = small, poorly fitted or top-dose-only effect; inactive = no such curve, though single readings can be large or run the other way; tested in HEK293T cells; note: % is set by controls: 0 for no effect and ±100 for the full control effect; nearly all actives have a fitted effect of over 45% in size; luciferase light after 4 h
LASV entry inh: qHTS for Inhibitors of binding or entry into cells for Lassa Virus; Lassa virus pseudotype entry inhibition, cell reporter; control for the full effect not named in the record; Potency, µM (top dose mostly 37.9 µM), for the others: at the top dose activity change, negative = inhibition, most hits filed as inhibitors; 1.2% of 300,000 active; active means well fitted inhibition curve with a large enough effect; inconclusive means small, poorly fitted or top-dose-only effect, or effect the other way; inactive means flat fitted curve, though single readings scatter; tested in HEK293 cells; note: % is set by controls: 0 for no effect and ±100 for the full control effect; nearly all actives have a fitted effect of over 50% in size; luciferase read-out
Cruzain inh noDet: qHTS Assay for Promiscuous and Specific Inhibitors of Cruzain (without detergent); Cruzipain (Trypanosoma cruzi), P25779; purified cruzain, Z-FR-AMC fluorescence, no detergent; Potency, µM, without a hit: max response, negative = inhibition, most hits filed as inhibitors; 2.3% of 200,000 active; AID 1476, 2009;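 note: plate controls were enzyme without inhibitor for no effect and buffer without enzyme for full effect; nearly all actives have a fitted effect of over 40% in size; top concentration of the series not given in the record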
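Detergent-free condition (0.00005% Triton X-100) in acetate buffer pH 5.5 with DTT. 1.5 nM enzyme and compound were pre-mixed 15 min, then 2 uM Z-FR-AMC substrate added; reaction progress from fluorescence change between first and third reads (60 s).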
NS1 inh: qHTS Assay for Inhibitors of Influenza NS1 Protein Function. S. cerevisiae slowed by influenza A NS1, growth recovery by OD600. Potency, µM (doses to about 46.1 µM), for the others: top-dose activity, positive = more growth. 0.4% of 270,000 active. AID 2326, 2010; active means well fitted rising curve with a large enough effect; inconclusive means small, poorly fitted or top-dose-only effect; inactive means no such curve, though single readings can be large or run the other way; note: nearly all actives have a fitted effect of over 50% in size
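Compounds were scored for reversing the slow growth caused by influenza A NS1 in S. cerevisiae, measured by optical density at 600 nm. Assay medium contained 2% galactose at pH 6.0; NS1-free yeast of the same strain were the positive control.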
SARS PLpro yeast: qHTS of Yeast-based Assay for SARS-CoV PLP; AID 485353, 2010; Potency, µM (titrated, usually from 32.9 µM), for inactives: top-dose activity, positive = growth rescue; 0.19% of 330,000 active; S. cerevisiae expressing SARS-CoV PLpro, growth rescue; control for the full effect not named in the record; active means well fitted rising curve with a large enough effect; inconclusive means small, poorly fitted or top-dose-only effect; inactive means no such curve, though single readings can be large or run the other way; note: 0% is about no effect; nearly all actives have a fitted effect of over 55% in size; growth read by luminescence after 48 h
* marks the source's active call; other numbers are inactive results; ? = inconclusive; nt = no result given; & = joins results of further samples; [ ] = dose if it differs, or a comment. Unless noted, calls come from the whole dose curve; as a rule, active = well fitted curve in the direction sought with a large enough effect; inconclusive = small, poorly fitted or top-dose-only effect, or another doubt; inactive = no such curve, though single readings can be large; an effect the other way counts as inactive or inconclusive. Potency is the fitted concentration of half-maximal effect.

SMILES | Marburg entry inh | RE007 growth inh | Cruzain inh Det | 2A StopGo | LASV entry inh | Cruzain inh noDet | NS1 inh | SARS PLpro yeast
Cc1ccccc1Cn1nnc(C(=O)Nc2cccc(C)c2C)c1N | -9% | 0% | -1.9% | 27% | 0% | 7% | -66% | -31%
COc1ccc(S(=O)(=O)Nc2ccc(S(=O)(=O)Nc3nc(C)cc(C)n3)cc2)cc1OC | 3%&3% | -4% | 1.4% | nt | 2% | -2% | -2% | 2%
O=C(CSc1nc2c(c(=O)n1-c1ccc(Br)cc1)SCC2)NCc1ccco1 | 24% | 3% | -4.1% | -12% | -1% | ? | 0% | 5%
C=CCn1c(=S)[nH]c2sc3c(c2c1=O)CCCC3 | nt | 3% | nt | -3% | nt | nt | 13% | 7%
O=C(Nn1c(C2CCCCC2)nc2ccccc2c1=O)c1cc(Cl)ccc1[N+](=O)[O-] | -5% | -5% | -5.7% | -14% | 5% | 1% | 0% | 9%
CCOc1ccccc1NC(=O)Cn1c(=O)oc2ccccc21 | nt | -6% | 2.1% | -14%&-10% | 4%[46.1 µM] | -4% | 8% | 0%
Cc1cc(C(=O)N/N=C/c2cc(N=Nc3ccccc3)ccc2O)n[nH]1 | 0.5µM* | -3% | -8.0% | 10% | 11µM* | 2% | -4% | 7.9µM*
Cc1ccc(C(C)C)c(OCC(=O)Nc2cc(-c3nc4ccccc4[nH]3)ccc2C)c1 | ? | nt | -3.8% | ? | ? | 26% | nt | nt
O=C1CCn2c1c(O)c1ccccc1c2=O | 26% | -2% | nt | -11% | -3%[46.1 µM] | nt | nt | nt
O=C1CC(c2ccccc2)Oc2ccc(Cl)cc21 (centres undefined) | 13% | -17% | nt | 14% | ? | nt | nt | nt
O=[N+]([O-])c1ccccc1/C=N\N1CCN(c2ccccc2)CC1 | nt | ? | nt | 47%[activator] | nt | nt | -1% | -2%
C=CCn1c(C)cc(C2=NNC(=NCc3ccccc3)SC2)c1C | ? | 1% | nt | 19% | ? | nt | nt | 4%
Fc1ccccc1NC(=S)NCc1ccc(Cl)cc1 | 5% | 2% | nt | 41%[activator] | -3% | nt | -40% | 1%
Cc1nc(N2CCN(S(=O)(=O)c3ccc(F)cc3)CC2)c2c(C)c(C)sc2n1 | 5% | -6% | -3.1% | nt | 1% | -12% | 3% | -6%
Cc1cccc(-n2ncc(C(=O)NCc3ccco3)c2C2CCN(C(=O)OC(C)(C)C)CC2)c1 | nt | nt | -8.5% | -7% | ? | 18% | nt | nt
CCCN1C(=O)C(Cc2nc3ccccc3c(=O)n2-c2cccc(C)c2)c2ccccc21 (centres undefined) | -23%[46.1 µM] | nt | -6.9% | 12% | -9%[46.1 µM] | -1% | nt | nt
CC(=O)Nc1nnc(Cc2c[nH]c3ccccc23)s1 | ? | -10% | nt | -2% | -17% | nt | nt | 4%
COc1ccc2cc(CO)c(Cl)nc2c1 | 6% | 0% | nt | 1% | 0% | nt | nt | -2%
COc1ccc(NC(=O)C(CC(=O)O)C(C)c2ccccc2)cc1 (centres undefined) | 16%[46.1 µM] | -4% | nt | -10% | 0% | nt | nt | 1%
Cc1cnc(CNC(=O)c2ccc(OC3CCN(C(=O)C4CC4)CC3)cc2)cn1 | -1%[46.1 µM] | 4% | nt | -12% | 22%[46.1 µM] | nt | -1% | 0%

A different layout for four compounds above:
structure	Marburg entry inh	RE007 growth inh	Cruzain inh Det	2A StopGo	LASV entry inh	Cruzain inh noDet	NS1 inh	SARS PLpro yeast
O=C1CCn2c1c(O)c1ccccc1c2=O	26%	-2%	nt	-11%	-3%[46.1 µM]	nt	nt	nt
O=C1CC(c2ccccc2)Oc2ccc(Cl)cc21 (centres undefined)	13%	-17%	nt	14%	?	nt	nt	nt
O=[N+]([O-])c1ccccc1/C=N\N1CCN(c2ccccc2)CC1	nt	?	nt	47%[activator]	nt	nt	-1%	-2%
C=CCn1c(C)cc(C2=NNC(=NCc3ccccc3)SC2)c1C	?	1%	nt	19%	?	nt	nt	4%

The list goes on:
SMILES | Marburg entry inh | RE007 growth inh | Cruzain inh Det | 2A StopGo | LASV entry inh | Cruzain inh noDet | NS1 inh | SARS PLpro yeast
N#Cc1cc(S(=O)(=O)c2ccc(F)cc2)c(N)[nH]c1=O | nt | 14% | nt | -20% | nt | nt | 3% | 0%
CC(=O)C(C)=O | ? | nt | -6.5%&3.1% | nt | 11% | 6%&2% | -3% | nt
COc1ccc(/C=C/C(=O)c2ccc3c(c2)OCO3)cc1OC | ? | -3% | nt | 24% | 4% | nt | nt | 4%
COc1cc(CN2CCCC(CO)(Cc3cccc(Cl)c3)C2)cc2c1OCO2 (centres undefined) | nt | -2% | nt | ? | nt | nt | 10% | 0%
Cn1c(=O)c2ncn(C)c2n(C)c1=O | 3%[46.1 µM] | 1% | nt | 40%[activator] | 21%[46.1 µM] | nt | nt | nt
CCOc1ccc(NC(=O)CN(C)CC(=O)Nc2cccc(Cl)c2C)cc1OCC | 4%[46.1 µM] | 7% | -14% | -25% | -1% | ? | 0% | 4%
CCCOCC(O)COc1ccccc1C(=O)N1CCOCC1 (centres undefined) | -3%[46.1 µM] | -17% | 1.5% | 0% | 7% | 1% | -7% | 13%
COc1ccc(-c2ccc(SCC(=O)N3CCOCC3)nn2)cc1OC | -1% | 9% | -3.3% | 4% | 7% | -10% | -2% | 2%
O=C(OCn1nnc2ccccc2c1=O)c1cc(-c2ccccc2Cl)nc2ccccc12 | 1%[46.1 µM] | 2% | -3.6% | -5% | 7%[46.1 µM] | ? | 7% | -1%
COc1ccc(/C=N/NC(=O)c2nonc2N)cc1OC | 13% | 3% | nt | 77%[activator] | 6% | nt | 2% | -1%
Clc1cc(Cl)c2nc(N3CCOCC3)sc2c1 | 20% | ? | -4.6% | 30% | 21% | -7% | -11% | -4%
COC(=O)c1cc(COC(=O)c2ccc(OC)c(S(=O)(=O)N3CCCC3)c2)oc1C | ? | -1% | -2.7% | -7% | 3% | ? | -3% | 4%
CCc1ccc(-c2ccc(SCC(=O)Nc3nnc(C)s3)nn2)cc1 | ? | -5% | nt | -37% | ? | nt | 3% | 0%
Cc1cccc(-c2cc3nc(C)cc(NCCCN(C)C)n3n2)c1 | ? | 5% | 1.1% | 10% | ? | -16% | -13% | -6%
CC(=O)/C=C(\C)Nc1ccccc1O | nt | ? | nt | 1% | nt | nt | -70% | -6%
CCOc1ccc(CCNC(=O)c2cnc3sc(N4CCCC4)nn3c2=O)cc1 | nt | nt | -1.7% | 28µM* | ? | 0% | nt | nt
Cc1cccc(N2CCN(C(=O)C3CCN(S(=O)(=O)c4c(C)noc4/C=C/c4ccccc4F)CC3)CC2C)c1 (centres undefined) | nt | nt | -6.6% | -26% | 0%[46.1 µM] | -16% | nt | nt
COc1ccc(C(=O)N/C(=C\c2cn(C)c3ccccc23)C(=O)NCCCn2ccnc2)cc1 | 0%[46.1 µM] | -2% | nt | -2% | 10%[46.1 µM] | nt | -1% | 0%
O=C(Nc1ccccc1OCc1cc(=O)n2ccccc2n1)Nc1ccccc1C(F)(F)F | nt | nt | 1.4% | 5% | ? | -11% | nt | nt
COc1cc(C(=O)Nc2ccc(OCc3cc(=O)n4ccc(C)cc4n3)cc2)cc(OC)c1OC | nt | nt | 3.8% | ? | ? | -6% | nt | nt
CCOC(=O)Cc1csc(NC(=O)c2c(O)c3ccccc3n(CCC(C)C)c2=O)n1 | ? | -9% | nt | -21% | -10% | nt | 1% | 0%
CC(=O)c1ccc(NC(=O)CSc2nc(=O)n(CCN3CCOCC3)c3c2CCC3)cc1 | 5% | 6% | nt | 7% | -1% | nt | nt | nt
COc1ccccc1-c1ccc(Nc2cccc(C(C)=O)c2)nn1 | -3% | -4% | -0.8% | 9% | 30% | -7% | -10% | 0%
Cc1onc(-c2ccccc2Cl)c1C(=O)Nc1ccc(-n2nncc2-c2ccco2)cc1 | -4% | 3% | -2.1% | ? | -2% | -17% | -116% | 3%
CC(=O)c1ccc(OCc2ncc(C(F)(F)F)cc2Cl)cc1 | 14% | 6% | nt | 45%[activator] | ? | nt | -6% | -2%
Cc1ccc(Cc2ccc(C(=O)NNC(N)=S)o2)cc1 | 18%[46.1 µM] | 4% | nt | -5% | -13% | nt | -1% | 0%
NS(=O)(=O)c1ccc(NC(=S)NCc2ccco2)cc1 | 20%[46.1 µM] | 9% | nt | -4% | -18% | nt | -2% | 1%
COc1ccc(NC(=S)N2CCCC2)cc1OC | 11%[46.1 µM] | -9% | nt | 14% | 14% | nt | 5% | -1%
COc1ccc(C(=O)N/C(=C/c2ccco2)C(=O)NCc2ccco2)cc1 | 24%[46.1 µM] | -19% | nt | -15% | 17% | nt | 1% | -6%
O=C(CC(c1ccccc1)c1cc(Cl)ccc1O)N1CCCC1 (centres undefined) | -23%&-23%[46.1 µM] | -1% | nt | 21% | 1% | nt | -7% | -2%
COc1ccccc1CN1CC(C(=O)N(C)Cc2[nH]c3ccccc3c2C)CCC1=O (centres undefined) | -22% | 11% | nt | 1% | -4% | nt | 4% | 5%
Cc1ccc(-n2nc(C)c3c(C(=O)NCc4ccc(F)cc4)cc(C)nc32)cc1 | nt | nt | -0.2% | -7% | ? | -9% | nt | nt
CCC(OC(=O)c1cccs1)C(=O)NC1CCCCC1 (centres undefined) | 0%[46.1 µM] | -11% | 1.4% | -7% | -9% | 1% | 0% | 1%
CC1CCN(CC(=O)N2CCc3ccccc32)CC1 | nt | 0% | nt | 32% | nt | nt | -15% | 3%
CN1C(=O)CC(N2CCN(c3ncccn3)CC2)C1=O (centres undefined) | 16% | -10% | -4.2% | -11% | -5% | 1% | 5% | 4%
